Screening data from PubChem.
CapD inh = blocks the Bacillus anthracis CapD enzyme. purified CapD enzyme, fluorescence intensity read-out; hits give low values; some hits fall short of the stated cut. 140,000 tested, 0.23% active. AID 492967. z-score (no concentration beside the values);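 active = z-score under -4 in either of two replicates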;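 note: stock transfer was 100 nL into about 40 µL; score is relative to mean and spread of the plate; one replicate is shown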
AID504770 = growth inhibitors of E. coli YBA685 in a screen for V. cholerae RctB (chromosome II replication) inhibitors | E. coli YBA685 rctB-dependent plasmid, OD600 growth, 3 h; hits give low values | z-score (test concentration not listed) | 130,000 tested, 0.27% active;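 active = z-score under -2 on both plates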;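 note: wells of about 30 µL received 100 nL stock; score is relative to mean and SD of the test wells; the first replicate is given; strong numbers were not always called active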
An asterisk follows results filed as active; & = joins results of further samples.

For O=C(CN1C(=O)/C(=C2\SC(=S)N(C3CCS(=O)(=O)C3)C2=O)c2ccccc21)Nc1cccc(Br)c1 (stereo not drawn) the results were CapD inh 0.315.
`Nc1[nH]ncc1-c1ccc(Cl)cc1` gave CapD inh 0.06 and AID504770 0.35.
For O=C(Cc1c(C(=O)O)[nH]c2ccccc12)Nc1cccc(Cl)c1 the results were CapD inh -0.09 and AID504770 -0.1.
Cc1nc2ccccc2nc1N1CCC(C)CC1 was read as CapD inh 1.38 and AID504770 -0.35.
For Brc1ccc(CSc2nncn2-c2ccccc2)cc1 the results were AID504770 -0.05.
`O=C(COc1ccccc1)NCC12C=CC(O1)C1C(=O)N(c3ccc([N+](=O)[O-])cc3)C(=O)C12` (stereo not drawn) gave CapD inh -0.28.
Cc1ccc(-c2cc(C(=O)NCC3CCCO3)[nH]n2)cc1C (stereo not drawn) was read as CapD inh 0.735 and AID504770 -0.8.
Screening O=C(Cn1ncc2ccsc2c1=O)N1CCC(Cc2ccccc2)CC1 returned CapD inh -0.5 and AID504770 -0.75.
`O=C(CN1C(=O)C(c2ccccc2)Oc2cccnc21)NCc1ccccc1` (stereo not drawn) gave CapD inh -0.295 and AID504770 1.15.
`CC(=O)Nc1cc2c(cc1C(=O)c1ccccc1)OCCO2` gave AID504770 1.4.
For Cc1cc(C(=O)NCC2(c3ccccc3)CCOCC2)oc1C the results were CapD inh -0.265 and AID504770 1.9.
Screening Cc1nc(-c2ccc(Cl)cc2)cs1 returned CapD inh 0.155.
Screening CCn1c(SCC(=O)NC2CCCC(C)C2C)nnc1-c1ccccc1 (stereo not drawn) returned AID504770 -2.2.
`O=C(O)CCC1CCCCC1=O` (stereo not drawn) gave AID504770 1.3.
Screening CCOc1ccc(OCC)c(NC(=O)CSc2nc3c(c(=O)n(C)c(=O)n3C)n2C(C)C)c1 returned AID504770 -0.45.
Screening CCOC(=O)N1CCN(C(=O)CSc2nnc(Cc3cccn3C)n2-c2ccc(F)cc2)CC1 returned CapD inh -1.39 and AID504770 -0.4.
Screening COc1cccc(CNc2nc3ccccc3n2C)c1 returned CapD inh 0.345 and AID504770 0.8.
COc1cc(/C=C2\C(=O)NC(=S)N(c3ccccc3C)C2=O)cc([N+](=O)[O-])c1O was read as CapD inh -5.96*.
`C=CCNC(=S)Nc1c(C)nn(CC)c1C` gave CapD inh -0.035 and AID504770 0.1.
For Cc1ccc(NC(CC(=O)C2CC2)c2ccccc2)cc1 (stereo not drawn) the results were CapD inh 0.8 and AID504770 1.8.
For CCc1nnc(SCc2cc(=O)n3ccsc3n2)n1C the results were CapD inh -0.84 and AID504770 -0.5.
O=C1CCc2ccc(NC(=O)C3CC3)cc2N1 was read as AID504770 -0.1.
For CCSC(=S)c1c(C)[nH]n(-c2ccccc2)c1=O the results were CapD inh -2.4 and AID504770 0.25.
Screening O=S(=O)(c1ccc(Cl)cc1)n1cccc1 returned CapD inh -0.765.

Compounds shown so far that have a COOH group (two):
For O=C(Cc1c(C(=O)O)[nH]c2ccccc12)Nc1cccc(Cl)c1 the results were CapD inh -0.09 and AID504770 -0.1.
`O=C(O)CCC1CCCCC1=O` (stereo not drawn) gave AID504770 1.3.

Carrying on.
`COc1ccc(OCC(=O)O)cc1` gave CapD inh 0.02 and AID504770 -0.5.
For NC(=S)C(=S)N1CCOCC1 the results were AID504770 2.2.
`O=C1CC(c2ccccc2)=NN1c1ccccc1` gave CapD inh 4.14.
COc1ccc(-n2c(SCC(=O)c3cc4ccccc4o3)nc3ccccc32)cc1 was read as AID504770 1.15.
For CCOC(=O)c1c(NC(=O)CSc2nnc(CNC(=O)c3ccco3)n2-c2cc(C)ccc2C)sc2c1CCC2 the results were CapD inh -0.25.
Screening Cc1cc(N)n(-c2ccc(Cl)cc2)n1 returned AID504770 2.3.
Oc1ccc(Br)cc1C=NCc1ccccc1 was read as CapD inh -1.3 and AID504770 -1.15.
Screening CCOC(=O)c1c(CSc2ccccc2)n(C)c2ccc(O)c(CN3CCOCC3)c12 returned CapD inh 0.21.
FC(F)(F)c1[nH]nc(-c2ccccc2)c1C12CC3CC(CC(C3)C1)C2 was read as CapD inh -0.13 and AID504770 1.05.
`COc1cc(C=C2C(=O)NC(=O)NC2=O)cc(Br)c1OCc1c(C)no[n+]1[O-]` gave AID504770 0.
Screening CC(=O)Nc1ccc(OCc2ccc3c(c2)OCO3)cc1 returned CapD inh 0.23 and AID504770 -0.25.
Screening O=C(NC1CCCCC1)c1ccc(CNc2ccccc2)o1 returned CapD inh 0.165 and AID504770 -0.5.
Cc1ccc(-c2nnc(C3CCN(S(=O)(=O)c4ccc(Cl)s4)CC3)o2)cc1 was read as CapD inh -0.075 and AID504770 -1.55.
For N#CCCN(Cc1ccncc1)C(=S)NC1CC2C=CC1C2 (stereo not drawn) the results were CapD inh 0.525 and AID504770 0.85.
For O=C(Cc1ccsc1)N/N=C/c1c[nH]c2ccccc12 the results were CapD inh -0.91.
Screening Cc1cc(=O)oc2cc(NC(=O)CSCC(=O)O)ccc12 returned CapD inh 31.4 and AID504770 -0.7.
Screening Cc1noc(C)c1S(=O)(=O)NC(C)c1ccccc1 (stereo not drawn) returned CapD inh -0.05 and AID504770 -0.55.
`N#C/C(=C\Nc1cccc(Cl)c1)S(=O)(=O)Cc1ccco1` gave CapD inh -0.685 and AID504770 0.3.
For O=C1C(=Cc2ccccc2)C(=O)N(c2ccccc2)C(=O)N1c1ccccc1 the results were CapD inh -0.355 and AID504770 -0.2.
`COC(=O)C(C(=O)Nc1ccccc1C)C1CCCCCC1` (stereo not drawn) gave CapD inh 0.205 and AID504770 -1.
O=C(Oc1ccc(C=Nc2cccc(Br)c2)cc1)c1ccccn1 was read as CapD inh -0.36 and AID504770 1.45.
For Cc1cc(C)nc(Sc2ccc(NC(=O)NC(C)(C)C)cc2)n1 the results were CapD inh -0.595.
For CCCN1C(=O)/C(=C/c2c(NCC)nc3ccccn3c2=O)SC1=S the results were CapD inh 0.49 and AID504770 0.75.
`Clc1ccc(Cl)c(SCCc2ccncc2)c1` gave CapD inh -0.735 and AID504770 -0.2.

The closing 5 compounds of the section before lead into the next:
`COC(=O)C(C(=O)Nc1ccccc1C)C1CCCCCC1` (stereo not drawn) gave CapD inh 0.205 and AID504770 -1.
O=C(Oc1ccc(C=Nc2cccc(Br)c2)cc1)c1ccccn1 was read as CapD inh -0.36 and AID504770 1.45.
For Cc1cc(C)nc(Sc2ccc(NC(=O)NC(C)(C)C)cc2)n1 the results were CapD inh -0.595.
For CCCN1C(=O)/C(=C/c2c(NCC)nc3ccccn3c2=O)SC1=S the results were CapD inh 0.49 and AID504770 0.75.
`Clc1ccc(Cl)c(SCCc2ccncc2)c1` gave CapD inh -0.735 and AID504770 -0.2.
Screening CN1C(=O)/C(=C/c2cn(CC(=O)NCc3ccco3)c3ccccc23)C(=O)NC1=S returned CapD inh -0.515 and AID504770 0.6.
CC(=O)N1CCOc2cc(S(=O)(=O)N(C)C3CCCC(C)C3C)ccc21 (stereo not drawn) was read as CapD inh -0.775 and AID504770 0.2.
CCOC(=O)c1sc(SC)nc1NS(=O)(=O)c1cc(C(F)(F)F)cc(C(F)(F)F)c1 was read as CapD inh -0.535 and AID504770 0.6.
Screening CN1CCC(N(C)C(=O)c2ccc3nccnc3c2)CC1 returned CapD inh -0.285 and AID504770 0.
For O=C(Nc1c(C(=O)Nc2ccc3c(c2)OCO3)oc2ccccc12)c1ccco1 the results were AID504770 2.2.
Cc1cccc(CN2C(=O)CSc3ccc(C(=O)NCc4c(F)cc(F)cc4F)cc32)c1 was read as CapD inh 0.765.
For FC(F)(F)c1cccc(Nc2nc(-c3cccnc3)nc3ccccc23)c1 the results were CapD inh 8.11.
For NC1=NC(=O)C2(COC(c3ccccc3Cl)OC2)S1 (stereo not drawn) the results were CapD inh 0.43 and AID504770 -0.05.
c1ccc(-n2nnnc2OCCOc2nnnn2-c2ccccc2)cc1 was read as CapD inh -0.57 and AID504770 1.8.
For CC1=C(C(=O)OCc2ccccc2)C(c2cn(-c3ccccc3)nc2-c2cccs2)NC(=O)N1 (stereo not drawn) the results were CapD inh 0.555.
For COc1ccc(C2(O)CN(c3ccccc3OC)C3=[N+]2CCCS3)c(F)c1 (stereo not drawn) the results were CapD inh -0.11.
Screening COc1ccccc1N(CC(O)CN1CCCCC1)S(=O)(=O)c1ccccc1 (stereo not drawn) returned CapD inh -0.34 and AID504770 -1.15.

By substructure: the entries above containing a CF3 group
FC(F)(F)c1[nH]nc(-c2ccccc2)c1C12CC3CC(CC(C3)C1)C2 was read as CapD inh -0.13 and AID504770 1.05.
CCOC(=O)c1sc(SC)nc1NS(=O)(=O)c1cc(C(F)(F)F)cc(C(F)(F)F)c1 was read as CapD inh -0.535 and AID504770 0.6.
For FC(F)(F)c1cccc(Nc2nc(-c3cccnc3)nc3ccccc23)c1 the results were CapD inh 8.11.

Other compounds.
Screening COc1ccc(C(C)=O)cc1CSC#N returned CapD inh 0.22.
`O=C(CSc1ncn[nH]1)NC1CCCCC1` gave CapD inh 0.595&0.385 and AID504770 0.2.
Cn1c2c(c(=O)c3ccccc31)CCCC2 was read as CapD inh 107 and AID504770 -0.65.
For O=S(=O)(c1ccc2[nH]c3nc4nc(-c5ccc(Br)cc5)cn4nc3c2c1)N1CCOCC1 the results were CapD inh 2.6.
Cc1ccc(-n2c(C)cc(/C=C(/C#N)c3ccccc3)c2C)cc1 was read as AID504770 2.5.
For Cc1nc(-c2cnccn2)sc1C(=O)NCc1ccncc1 the results were CapD inh 10.1 and AID504770 -0.7.
O=C(CS(=O)(=O)c1ccc(C(F)(F)F)cn1)N/N=C/c1ccnc2ccccc12 was read as CapD inh 8.04.
COc1ccccc1NC(=O)COC(=O)CCC1CCCC1 was read as AID504770 0.8.
`CS(=O)(=O)c1ccc(CN(C(=O)Nc2ccc(F)cc2F)C2CCN(Cc3ccccc3)CC2)cc1` gave CapD inh -0.525.
CCc1c(C)nc(N)n2c(SCc3ccc(C(F)(F)F)cc3)nnc12 was read as AID504770 -0.3.
For O=S1(=O)CC=C(Cl)C1 the results were CapD inh -0.96.
For CCSc1n[nH]c(-c2ccc(Cl)cc2)n1 the results were CapD inh 2.79 and AID504770 -1.
For CCc1ccc(-n2c(N3CCN(c4ccccc4)CC3)nc3ccccc3c2=O)cc1 the results were CapD inh 0.81 and AID504770 0.15.
For COCCNc1ncnc2c1sc1nc(N3CCOCC3)c3c(c12)CCC3 the results were AID504770 1.95.
Screening CCOC(=O)N1CCC(=NNc2ccc(Cl)c(C(=O)O)c2)CC1 returned AID504770 -0.15.
`O=C(CSc1nc2ccccc2c(=O)[nH]1)c1c[nH]c2ccccc12` gave CapD inh 0.57.
COC(=O)C(NC(=O)c1cccc(Cl)c1)(Nc1sc2c(c1C#N)CCC(C(C)(C)C)C2)C(F)(F)F (stereo not drawn) was read as CapD inh -0.065.
For Cc1nc(SCC(=O)Nc2ccc(-c3ccccc3)cc2)c2c3c(sc2n1)CCC3 the results were CapD inh -0.01 and AID504770 0.85.
`CCN(CC(=O)Nc1ccccc1Br)C1CCCCC1` gave AID504770 -0.1.
`O=C(Cc1ccc(F)cc1)Oc1ccccc1F` gave CapD inh 0 and AID504770 -0.75.
For COc1ccc2nc3[nH]nc(NC(=O)Cc4ccccc4OC)c3cc2c1 the results were CapD inh 0.115 and AID504770 0.1.
`COC(=O)c1sc(C(C)(C)C)cc1CS(=O)(=O)c1ccc(Cl)cc1` gave CapD inh 0.555.
Screening CCOC(=O)N/N=C/c1cccc(Br)c1 returned AID504770 0.2.
COc1cc(/C=C2\C(=O)NC(=O)N(c3ccc(Cl)cc3)C2=O)cc(Cl)c1O was read as CapD inh -1.05.
`CC(=O)n1c(C)cc(=O)[nH]c1=O` gave AID504770 -0.5.
For CC1CC(C)CN(S(=O)(=O)c2ccc(F)c(F)c2)C1 (stereo not drawn) the results were CapD inh 0.065 and AID504770 -1.1.
For O=C(O)CC1(Cc2nc(-c3cccs3)no2)CCCC1 the results were CapD inh -0.53 and AID504770 -0.55.
Screening CCN(CC)CCOC(=O)c1ccc(NC(=O)CCN2C(=O)/C(=C/c3ccc(F)cc3)SC2=S)cc1 returned CapD inh -1.18.
Cc1ccc(Nc2cc(C(=O)O)c3ccccc3n2)c(C)c1 was read as CapD inh -0.055 and AID504770 -0.85.
O=C(NC1CCCc2ccccc21)c1ccc2c(=O)n3c(nc2c1)CCCCC3 (stereo not drawn) was read as CapD inh -0.375 and AID504770 -0.4.
Screening COC(=O)C1=C(C)N(c2ccccc2F)C(=O)/C1=C\c1cccc(OC)c1O returned CapD inh 2.81 and AID504770 -0.4.
`O=C(CCc1ccc(-c2ccccc2)o1)Nc1ccccc1C(=O)NC1CC1` gave AID504770 -0.3.
`CCC1C(=O)NCCN1C(=O)c1ccc(C)c(I)c1` (stereo not drawn) gave AID504770 -0.05.
`CCC(C)NC(=O)c1ccc2c(c1)N=C(C)c1cc(Cl)ccc1S2` (stereo not drawn) gave CapD inh -0.045 and AID504770 -0.15.
`Cc1nc(N2CCOCC2)c2c(C)c(C(=O)Nc3ccc4c(c3)OCO4)sc2n1` gave CapD inh -1.
`Cc1cc(NC(=O)c2sc3nc(-c4ccccc4)cc(C(F)(F)F)c3c2N)no1` gave CapD inh 0.225 and AID504770 -0.3.
Screening CCC1(C)CC(CCNCc2ccc(N(C)C)cc2)(c2ccc(OC)cc2)CCO1 (stereo not drawn) returned CapD inh 0.155.
CCCc1ccc(-c2nc(-c3ccc(C(F)(F)F)cn3)no2)cc1 was read as CapD inh -0.565 and AID504770 1.55.

Hits appear at their usual frequency. Share with any hit: about 0.37%.
